WNV NS2B-NS3 inh – blocks West Nile virus NS2B-NS3 protease activity; P06935; WNV NS2B-NS3 protease, fluorogenic substrate Ex360/Em465; stronger effect = lower value; z-score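 (tested at a level between 10 and 100 µM)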; 65,000 tested, 0.18% active; AID 577;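 active = z-score at -3 or under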;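 note: score is relative to mean and spread of the compound wells of a plate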
Target sequence (P06935 1371-1501 limits assumed): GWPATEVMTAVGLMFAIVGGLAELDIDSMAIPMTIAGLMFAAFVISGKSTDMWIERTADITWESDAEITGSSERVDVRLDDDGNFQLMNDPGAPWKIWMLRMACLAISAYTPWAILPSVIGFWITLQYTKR
Target sequence (P06935 1502-1679 limits assumed): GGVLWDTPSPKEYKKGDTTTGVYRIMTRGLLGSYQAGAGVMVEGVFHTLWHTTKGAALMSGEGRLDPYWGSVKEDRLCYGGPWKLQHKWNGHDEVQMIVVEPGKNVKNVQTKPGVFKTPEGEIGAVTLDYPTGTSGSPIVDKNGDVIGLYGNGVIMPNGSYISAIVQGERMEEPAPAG
MT1-MMP promoter – MT1-MMP gene expression reporter suppression – cell-based, luciferase reporter, luminescence (AID 618); MT1-MMP promoter luciferase reporter cells, luminescence; calls from a first round at 10 µM; hits with a dose series show EC50 in µM; 87,000 tested, 0.62% active;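 active = over half of the reporter light lost at 10 µM or EC50 under 50 µM; inactive = the rest and hits that failed the dose series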;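 note: actives suppress MT1-MMP promoter-driven transcription so potencies describe inhibitors; HT1080 fibrosarcoma cells; overnight exposure; toxic or luciferase-blocking compounds were not removed from the actives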
Hsc70 ATP site – small molecules displacing fluorescent ligand from Hsc70 – biochemical, fluorescence polarization, primary screen (AID 568); Hsc70 fluorescence polarization, probe displacement; higher % means a stronger effect; strong numbers were not always called active; displacement, % at 20 µM; hits with a dose series show IC50 in µM; 83,000 tested, under 10 active;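 active = displacement above 50% without optical interference and an IC50 on retest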;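 note: ATPase domain with a fluorescein-tagged ATP probe; 0% = vehicle and 100% = excess ADP; read after one hour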
* hit, by the source's call; i = inactive; . = not tested or not shown.

Start of the listing, in advance:
SMILES	WNV NS2B-NS3 inh	MT1-MMP promoter	Hsc70 ATP site
C=CCN(c1ccc(C(N)=O)cc1)S(C)(=O)=O	-0.8	i	-0.9%
Fc1ccc(CNn2cnnc2SCc2ccc(F)cc2)cc1	.	i	1.3%

Main list, from the start:
SMILES	WNV NS2B-NS3 inh	MT1-MMP promoter	Hsc70 ATP site
C=CCN(c1ccc(C(N)=O)cc1)S(C)(=O)=O	-0.8	i	-0.9%
Fc1ccc(CNn2cnnc2SCc2ccc(F)cc2)cc1	.	i	1.3%
C1=C(c2ccccc2)Nc2nnnn2C1	0.51	i	1.2%
CCC1CCCCN1S(=O)(=O)c1ccc(S(=O)(=O)N2CCN(S(=O)(=O)CC)CC2)cc1 (stereo unspecified)	-0.72	i	4.9%
O=C1C2CCCN2C(c2cccs2)N1c1ccc(Cl)cc1 (stereo unspecified)	-0.24	i	-3.2%
CCCn1c(CN(C)Cc2ccccc2)nc2c1c(=O)n(C)c(=O)n2C	.	i	7.7%
COc1ccc(-c2noc(CCC(=O)NCc3cccnc3)n2)cc1OC	-0.27	i	2.8%
Cc1cccc(CSc2ncnc3c2cnn3Cc2ccccc2)c1	.	i	3.6%
O=C(NCCc1ccccn1)c1n[nH]c(=O)c2ccccc12	1.8	i	-4.6%
COc1c(Cl)cc(Cl)cc1/C=N/n1cnnc1	-0.42	i	1.4%

Structural class: those above containing a halogen (3)
SMILES	WNV NS2B-NS3 inh	MT1-MMP promoter	Hsc70 ATP site
Fc1ccc(CNn2cnnc2SCc2ccc(F)cc2)cc1	.	i	1.3%
O=C1C2CCCN2C(c2cccs2)N1c1ccc(Cl)cc1 (stereo unspecified)	-0.24	i	-3.2%
COc1c(Cl)cc(Cl)cc1/C=N/n1cnnc1	-0.42	i	1.4%

Going on with the list:
SMILES	WNV NS2B-NS3 inh	MT1-MMP promoter	Hsc70 ATP site
CCCSC1=C(C#N)C(c2ccc(Cl)cc2Cl)CC(=O)N1 (stereo unspecified)	-0.83	i	1.9%
COC(=O)CSc1nnnn1-c1ccccc1	-0.98	i	-6.9%
O=C(OCc1c(Cl)cccc1Cl)c1cnccn1	-0.71	i	3.0%
COc1ccc(OCc2nc(N)nc(Nc3ccccc3OC)n2)cc1	.	i	-3.3%
CCCOC(=O)c1ccc(Oc2cn[nH]c2-c2ccc(OCC)cc2O)cc1	-0.13	i	5.3%
CCN(CC)C(=O)CSc1nnc(-c2cccnc2)n1CCc1ccccc1	-0.25	i	3.3%
CC(Sc1nc2ccc(Br)cc2[nH]1)C(=O)O (stereo unspecified)	.	i	2.3%
CC1=C(C(=O)OCc2ccccc2)C(c2cccnc2)n2nnnc2N1 (stereo unspecified)	.	i	0.8%
COc1ccccc1Cc1nc(-c2ccc(Br)o2)no1	-0.65	i	-3.4%
Cc1cccc(N2C(=O)NC3(CCCCC3)C2=O)c1	.	i	-2.2%
COC(=O)CC1=C(C(=O)OC)C(c2cccs2)C(C#N)=C(N)O1 (stereo unspecified)	-0.02	i	10%
O=C(c1cc2nc(C3CC3)cc(C(F)F)n2n1)N1CCOCC1	0.26	i	-5.6%
CCOC(=O)c1c(C)nc(-c2ccccc2)nc1NC(=O)C(C)C	-0.18	i	7.1%
O=C(Nc1ccc(Br)cc1)c1ccc(N2C(=O)C3CC=C(Cl)CC3C2=O)cc1 (stereo unspecified)	.	i	1.6%
O=C(NC(=O)c1ccccc1)OCC(F)(F)F	0.17	i	4.7%
Cc1csc(NC(=O)CSc2nc3sc(C)c(C)c3c(=O)[nH]2)n1	-0.15	i	-11%
O=C(c1ccc(CS(=O)(=O)c2ccc(Br)cc2)o1)N1CCOCC1	-0.68	i	2.8%
O=C(NCCN1CCc2ccccc2C1)C1CCN(S(=O)(=O)N2CCC3(CC2)OCCO3)CC1	-0.34	i	-10%
COc1cccc(NC(=O)c2ncn[nH]2)c1	-0.2	i	-2.4%
Cc1ccc(NC(=O)c2ocnc2C)cc1Cl	-0.52	i	-4.8%
COc1ccccc1NC(=O)CSc1nc2ncccc2[nH]1	0.79	i	-0.8%
COCCCn1c(Cc2ccccc2)nnc1SCC(=O)N1CCCCC1	-0.69	i	-2.7%
CC1(C)Oc2ccc(C(=O)N3CCOCC3)cc2N(CC(=O)Nc2ccccc2)C1=O	-0.96	i	2.2%
CCN(CC)CCNC(=O)C1CCC(=O)N(c2ccc(OC)cc2)C1c1ccc(F)cc1 (stereo unspecified)	-0.03	i	4.8%
COC(=O)c1ccsc1NC(=O)C1COc2ccccc2O1 (stereo unspecified)	-0.39	i	0.4%
O=C(c1cc2ccccc2oc1=O)N1CCSC1c1ccco1 (stereo unspecified)	0.63	i	-2.6%
CNC(=O)c1c(NC(=O)c2nc3ccccc3s2)sc2c1CCC2	-0.74	i	-21%
O=C1NC2(CCCc3ccccc32)C(=O)N1Cc1nnc(-c2ccccc2Br)o1 (stereo unspecified)	0.38	i	-1.7%
CCn1c(SCC(=O)c2cc(C)n(-c3ccc(C(=O)OC)cc3)c2C)nnc1-c1cccnc1	-0.66	i	4.9%
CCOc1ccc(Br)cc1S(=O)(=O)N1CC(C)OC(C)C1 (stereo unspecified)	-0.58	i	0.8%

An excerpt from further up, as a working copy:
SMILES	WNV NS2B-NS3 inh	MT1-MMP promoter	Hsc70 ATP site
CCn1c(SCC(=O)c2cc(C)n(-c3ccc(C(=O)OC)cc3)c2C)nnc1-c1cccnc1	-0.66	i	4.9%
CCOc1ccc(Br)cc1S(=O)(=O)N1CC(C)OC(C)C1 (stereo unspecified)	-0.58	i	0.8%

(next part)
SMILES	WNV NS2B-NS3 inh	MT1-MMP promoter	Hsc70 ATP site
COC(=O)c1ccccc1NC(=O)Cn1cnc2c1c(=O)n(C)c(=O)n2C	0.26	i	5.1%
COC(=O)CCCNS(=O)(=O)c1ccc2ccccc2c1	.	i	4.3%
C=CCc1cccc(/C=N/n2c(C)nnc2C)c1O	.	i	7.4%
COc1cc(/C=C(\C#N)c2nc3c(s2)CC(C)CC3)ccc1O (stereo unspecified)	.	i	-9.3%
CCOC(=O)c1ccc2[nH]c3c(c2c1)CCCCC3=O	0.78	i	-6.6%
CC(SCc1ccccc1)C(=O)Nc1ccc2c(c1)OCO2 (stereo unspecified)	.	i	1.2%
O=C(OC(C(=O)NC1CCCC1)c1ccc(F)cc1)c1ccno1 (stereo unspecified)	0.66	i	4.9%
CC(C)NC(=O)Cc1ccc(Br)cc1	.	i	3.4%
N=c1c(C(=O)NCc2ccco2)cc2c(=O)n3ccccc3nc2n1CC1CCCO1 (stereo unspecified)	.	i	6.1%
CCOc1ccccc1NC(=O)Cn1nnc(C(=O)NCc2ccco2)c1N	-0.56	i	-3.2%

Reprinted at random: two records from the list
SMILES	WNV NS2B-NS3 inh	MT1-MMP promoter	Hsc70 ATP site
O=C(OC(C(=O)NC1CCCC1)c1ccc(F)cc1)c1ccno1 (stereo unspecified)	0.66	i	4.9%
COC(=O)c1ccccc1NC(=O)Cn1cnc2c1c(=O)n(C)c(=O)n2C	0.26	i	5.1%

(cont.)
SMILES	WNV NS2B-NS3 inh	MT1-MMP promoter	Hsc70 ATP site
Cn1cnnc1SCC(=O)c1cc2ccccc2oc1=O	-0.77	i	-4.1%
COc1cc(C(c2nnnn2C2CCCC2)N2CCc3ccccc3C2)ccc1O (stereo unspecified)	-1.3	i	-4.9%
Cc1nc(NCCCO)c(C#N)c2c1COC(C)(C)C2	-0.33	i	5.1%
O=C(Nc1cccc(-c2nnn(CC(=O)N3CCc4ccccc4C3)n2)c1)C1CCC1	-0.92	i	2.4%
O=C(NNC1=C(C(=O)C(F)(F)F)CCC1)c1ccc(Cl)cc1	.	i	-4.3%
O=C1CCC(C(=O)OCc2c(Cl)cccc2Cl)N1 (stereo unspecified)	.	i	-3.3%
CCCC(=O)N(CCN(C(=O)CCC)c1ccccc1)c1ccccc1	.	i	-3.7%
CC1CCCCC1N1CCN(C(=O)c2cccc(F)c2)CC1 (stereo unspecified)	1.6	i	0.0%
CC1C(c2ccccc2)C(C#N)(C#N)C2(C#N)C(=O)NC1(N)C2C (stereo unspecified)	.	i	3.6%
Cc1ccc(-n2c(C)cc(/C=N/NC(=O)CC3(C)OCCO3)c2C)cc1	.	i	-0.6%
O=S(=O)(Nc1ccc2nc(C(F)(F)F)[nH]c2c1)c1ccccc1	-0.96	i	-3.3%
COC(=O)c1ccccc1NC=C1C(=O)OC2(CCCCC2)OC1=O	-1.7	i	-0.5%
Cc1cc(=O)[nH]c(SCC(=O)Nc2nc3c(s2)CCCC3)n1	-0.78	i	8.0%
CN(c1ccccc1C(=O)Nc1cccc(Cl)c1Cl)S(C)(=O)=O	.	i	-1.8%
CCOC(=O)/C(C#N)=C1/C=CN(Cc2ccccc2)C=N1	-0.93	i	-3.9%
O=C(Nc1cccc(Cl)c1N1CCCC1)c1cc2ccccc2o1	0.52	i	-2.4%
COC(=O)COC(=O)CC(CC(N)=O)c1ccccc1 (stereo unspecified)	-0.49	i	0.4%
Cn1c(NC(=O)c2ccco2)c(-c2ccccc2Cl)c(=O)c2ccccc21	-0.04	i	-3.0%
CC1CN(c2c3c(nc4ncnn24)CCCC3)CC(C)O1 (stereo unspecified)	1.1	i	-2.1%
CCCc1cc(-c2[nH]ncc2-c2ccc(C(=O)OCC)o2)c(O)cc1O	-0.73	i	-5.5%
CCOC(=O)c1[nH]c(C)c(C(=O)Nc2ccc(C)c(Cl)c2)c1C	-0.16	i	-16%
C[C@@H](Nc1nc(-c2ccccc2)nc2c1oc1ccccc12)C(=O)O	0.8	i	-2.6%
Cc1noc(C)c1C(=O)NCCC1=CCCCC1	-0.66	i	2.7%
COc1ccc2[nH]c(=O)c(CN(C)C(=O)COc3ccccc3)cc2c1	-1.1	i	-4.5%
Cc1ccc2c(c1)N(CCC(=O)NCc1ccc3c(c1)OCO3)C(=O)CO2	-0.12	i	2.9%
CCOC(=O)c1c(NC(=O)CSc2nnnn2CC)sc(C)c1C	1	i	-1.6%
COC(=O)c1ccc(C(=O)OC)c(NC(=O)c2cnc3n(c2=O)CCS3)c1	0.47	i	-8.2%
CC(=O)c1ccc(O)c(CO)c1	0.93	i	3.0%
Nc1nc2n(n1)C(c1ccco1)CC(c1ccccc1)N2 (stereo unspecified)	-1.3	i	-2.2%
CCOc1ccc2[nH]c(C)c(CN3CCN(CC)CC3)c(=O)c2c1	0.63	i	0.5%
CCOCCCNc1ncc2c(n1)CC(c1ccc(C)cc1)CC2=O (stereo unspecified)	-0.19	i	-2.0%
CC(=O)c1cccc(NC(=O)C2CCN(S(=O)(=O)c3ccccc3)CC2)c1	.	i	-0.4%
COc1ccc(S(=O)(=O)CCC(=O)NCCc2ccc(C)cc2)cc1	.	i	1.3%
COc1ccc(C2N=C(N)N=C(N)N2c2ccccc2OC)cc1OC (stereo unspecified)	.	i	-4.4%
Cc1ccc(OC(C)C(=O)N2CCCc3ccccc32)cc1 (stereo unspecified)	.	i	5.4%
CC(=O)Nc1ccc(-c2cc(NC(C)=O)n(-c3ccccc3)n2)cc1	-0.47	i	-5.3%
C=CCn1c(SCC(=O)N2CCOCC2)nc(O)c(Cc2ccccc2)c1=O	-0.21	i	-0.7%
Cc1sc2nc(CSc3nnc(Cc4cccs4)n3C3CCCCC3)[nH]c(=O)c2c1C	-0.15	i	-63%
COc1ccc(NC(=O)C2CCN(S(C)(=O)=O)CC2)cc1	.	i	1.8%
COc1ccc(C(=O)NCCc2ccc(S(N)(=O)=O)cc2)cc1OC	0.36	i	-8.6%
CN(C)CCN1C(=O)c2oc3ccccc3c(=O)c2C1c1ccc(F)cc1 (stereo unspecified)	-0.34	i	-0.1%
Cc1ccc(S(=O)(=O)c2nc(Nc3nccs3)sc2Cl)cc1	1.7	i	-16%
O=C1N/C(=N/c2ccccn2)SC1Cc1ccccc1 (stereo unspecified)	-0.03	i	-3.8%
COc1ccccc1CNc1ncnc2c1nnn2Cc1ccccc1	-0.73	i	-6.9%
Cc1ccc(S(=O)(=O)N2CCN(C(=O)CN3CCCCC3)C2C(C)C)cc1 (stereo unspecified)	.	i	-1.2%
CC(=O)N1CCC(N(CCCOC(C)C)C(=O)Nc2ccc(Cl)cc2)CC1	0.89	i	-4.8%
COC(=O)CSc1nnc(CCc2nc3ccccc3[nH]2)n1C	-0.13	i	-4.7%
Cc1cc(C)n(C(=O)c2ccc(C)c(S(=O)(=O)N3CCCC3)c2)n1	-0.13	i	-0.1%
Nc1c(C(=O)NCc2ccccc2)sc2nc3c(cc12)C(=O)CCC3	.	i	-0.1%
O=C(COC(=O)c1ccc2c(c1)OCCO2)NCc1ccccc1	0.58	i	9.5%

Following part:
SMILES	WNV NS2B-NS3 inh	MT1-MMP promoter	Hsc70 ATP site
CN(C)c1nc(N(C)C)nc(N(C)C)n1	-2.1	i	4.9%
N/C(=N\c1nc2ccccc2o1)NC(=O)c1ccccc1F	.	i	0.5%
Cc1onc(-c2ccccc2Cl)c1C(N)=O	0.11	i	-2.1%
COC(=O)c1ccc2ccn(CC(=O)NC(C)C)c2c1	0.81	i	-1.3%
COCCNC(=O)Nc1ccc2nc(C)sc2c1	.	i	-2.5%
CCC1CCCCN1C(=O)COC(=O)c1cc2ccccc2cc1O (stereo unspecified)	-0.05	i	2.5%
CC1(C)CC(=O)C=C(Nc2ccc(OCC(F)(F)C(F)F)cc2)C1	-0.69	i	-4.6%
Cn1ncc([N+](=O)[O-])c1C(=O)Nc1nc2ccccc2n1CCN1CCCCC1	.	i	2.2%
Cc1ccc(-n2nc(C)cc2NC(=O)c2ccc(C)s2)cc1	.	i	0.5%
NC1=NS(=O)(=O)NC1c1ccc(Cl)cc1 (stereo unspecified)	.	i	0.8%
C=CCn1c(SCc2c(Cl)cccc2Cl)nnc1-c1cccnc1	.	i	-2.0%

Bioassay records as filed in PubChem BioAssay.
